# GIRK2 activ: GIRK2 channel activation. P48051. HEK293-GIRK2 thallium flux, Thallos fluorescence. calls only for hits at 25 µM. 63,000 compounds, 0.05% hits;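 active = among the strongest 0.2% of first-round signals and kept after retests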;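 note: first round at about 10 µM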
# Target sequence (P48051 whole entry, looked up): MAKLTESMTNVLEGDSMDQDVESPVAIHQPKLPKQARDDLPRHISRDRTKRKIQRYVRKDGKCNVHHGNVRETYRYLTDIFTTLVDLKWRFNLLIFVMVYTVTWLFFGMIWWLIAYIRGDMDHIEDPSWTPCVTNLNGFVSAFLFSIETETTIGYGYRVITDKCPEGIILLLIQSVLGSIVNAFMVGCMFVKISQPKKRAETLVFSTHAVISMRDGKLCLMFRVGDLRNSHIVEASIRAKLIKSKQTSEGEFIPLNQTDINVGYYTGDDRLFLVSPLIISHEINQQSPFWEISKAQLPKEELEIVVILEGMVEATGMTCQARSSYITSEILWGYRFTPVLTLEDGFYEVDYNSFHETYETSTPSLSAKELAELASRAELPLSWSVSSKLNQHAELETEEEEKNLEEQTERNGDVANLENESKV
# Calls only; i = inactive. The list is partial. The share of hits here may be higher or lower than overall.
SMILES | GIRK2 activ
COCCc1nnc(NC(=O)c2cn(C)nc2OC)o1 | i
O=S(=O)(NCC(O)c1ccc2c(c1)CCO2)c1ccc(OC(F)(F)F)cc1 (centres undefined) | i
NS(=O)(=O)c1ccc(NC(=O)CSc2ncnc3sc4c(c23)CCCCC4)cc1 | i
CCOc1ccc(OCC)c(S(=O)(=O)NCCOc2ccc(F)cc2)c1 | i
O=C(Nc1ccc2c(c1)N(C(=O)c1cccs1)CC2)c1cnn(-c2ccccc2)n1 | i
COc1ccccc1NC(=O)Cn1nc(Nc2cccc(F)c2)c(S(=O)(=O)c2ccccc2)c1N | i
Cc1cc(NC(=O)CN(C)c2nc3c(C)ccc(C)c3s2)no1 | i
C=CCNC(=O)CCc1cccc(Oc2ccc(F)cc2)c1 | i
COc1ccc(-c2cn3c(C(=O)N(C)Cc4ccccc4)csc3n2)cc1 | i
O=C1/C(=C/c2ccc(O)cc2)SC(=S)N1c1ccc(O)cc1 | i
COCCn1c(=O)c2c(nc3n(Cc4ccco4)c(C)cn23)n(C)c1=O | i
O=C(CSc1nnc(CCc2nc3ccccc3[nH]2)o1)N1CCOCC1 | i
Nc1ncnc2occ(-c3ccc(NC(=O)Nc4cc(C(F)(F)F)ccc4F)cc3)c12 | i
Cn1c(=O)n(CC(=O)OCc2ccccc2)c(=O)c2c1nc1n2CCCN1c1ccccc1 | i
COc1ccc(CN2COc3ccc4c(c3C2)O/C(=C\c2cccnc2)C4=O)cc1OC | i
Cn1c(=O)c(-c2ccccc2Cl)cc2cnc(NC3CCOCC3)nc21 | i
Cc1cc(=O)[nH]c(-n2nc(-c3cccs3)cc2NC(=O)c2cccs2)n1 | i
O=S(=O)(NCCC(O)c1cccc2ccccc12)c1ccc(Br)cc1 (centres undefined) | i
O=C(CN1CCN(c2ccc(F)c(F)c2)C1=O)NCC1CCCO1 (centres undefined) | i
CC(C)NC(=O)Nc1nc2cc3c(cc2s1)OCCO3 | i
CCOc1ccc(-c2csc(-n3nc(C)cc3NC(=O)c3cccs3)n2)cc1 | i
Cc1ccc(C(O)CNC(=O)COc2ccc(F)cc2)o1 (centres undefined) | i
Cc1nc(-c2ccccc2Cl)sc1CNC(=O)Cc1ccc(Br)cc1 | i
CCOc1ccc(S(=O)(=O)c2cn(CC(=O)Nc3ccccc3C)c3ccc(F)cc3c2=O)cc1 | i
CCCOc1cc(S(=O)(=O)NCCCn2ccnc2)ccc1Cl | i

# Ordered by SMILES length (largest number first): 3 of the compounds above
SMILES | GIRK2 activ
COc1ccccc1NC(=O)Cn1nc(Nc2cccc(F)c2)c(S(=O)(=O)c2ccccc2)c1N | i
CCOc1ccc(-c2csc(-n3nc(C)cc3NC(=O)c3cccs3)n2)cc1 | i
O=S(=O)(NCCC(O)c1cccc2ccccc12)c1ccc(Br)cc1 (centres undefined) | i

# (listing goes on)
SMILES | GIRK2 activ
O=C(O)c1cccc(NC(=O)C2Cc3ccccc3C(=O)O2)c1 (centres undefined) | i
CC(=O)Cn1c(=O)c2c(nc3n(-c4cccc(C)c4C)c(C)cn23)n(C)c1=O | i
C/C(=C\CCC(C)C1CC(O)C2(C)C3CCC4C(C)(C)C(OC5OCC(O)C(O)C5OC5OC(COC6OC(CO)C(O)C(O)C6O)C(O)C(O)C5O)CCC45CC35CC(O)C12C)C(=O)OC1OC(COC(=O)CC(C)(O)CC(=O)O)C(O)C(O)C1O (centres undefined) | i
O=S(=O)(c1cc(F)ccc1F)N(CCc1cccs1)Cc1ccco1 | i
COc1ccccc1N1CCN(CCNC(=O)Cc2cccs2)CC1 | i
CCOc1ccccc1NC(=O)N1CC(c2nc(-c3ccccn3)no2)C1 | i
Cc1ccc(S(=O)(=O)N2CCCSCC2CN(C)C)cc1C (centres undefined) | i
CCCCCCCCCCCCCCCCNc1ccc(C(=O)O)cc1 | i
COc1ccc(NC(=O)c2c(OC)cccc2OC)cc1N1CCCC1=O | i
CCN(c1ncc([N+](=O)[O-])c(N)n1)C1CCCCC1 | i
CN(C)c1ccc(C(=S)N2CCN(C(=O)c3cccs3)CC2)cc1 | i
COc1ccccc1NC(=O)NCCNc1ccc(Nc2ccncc2)nn1 | i
CCCCCn1c(=S)[nH]c2cc(C(=O)Nc3cc(OC)ccc3OC)ccc2c1=O | i
COc1ccccc1CCNC(=O)C(=O)c1cn(CC(=O)N2CCOCC2)c2ccccc12 | i
Cc1cc(C)c(S(=O)(=O)N2CCCCC2CCNC(=O)C(=O)NC2CC2)c(C)c1 (centres undefined) | i
CC(=O)NC(CSC/C=C(\C)CC/C=C(\C)CCC=C(C)C)C(=O)O (centres undefined) | i
O=C(NCCOc1ccc2c(c1)OCO2)c1cccs1 | i
Cc1c(Cl)cccc1NC(=O)c1nnn(-c2ccc(F)cc2)n1 | i
N[C@@H](C(=O)N[C@@H]1C(=O)N2C(C(=O)O)=C(Cl)CS[C@H]12)c1ccccc1 | i
Cc1noc(-c2ccc(N3CCCC(C(=O)NCc4c(C)noc4C)C3)nc2)n1 (centres undefined) | i
COC(=O)C1(Cc2ccc3c(c2)CC(O)C(C)(C)O3)OC(=O)C(OC)=C1c1ccc(O)c(O)c1 (centres undefined) | i
O=C(Cn1cnc2c(-c3ccc(Cl)cc3)csc2c1=O)NCCCc1ccccc1 | i
COc1ccc(-c2csc3c(=O)n(CC(=O)Nc4cc(C)ccc4OC)cnc23)cc1 | i
CC(Cc1ccco1)NC(=O)CSc1ccc(F)cc1 (centres undefined) | i
Cc1cc(=O)[nH]c2ccc(S(=O)(=O)Nc3ccc(Br)cc3)cc12 | i

# Six entries from above, set out differently.
GIRK2 activ | structure
i | N[C@@H](C(=O)N[C@@H]1C(=O)N2C(C(=O)O)=C(Cl)CS[C@H]12)c1ccccc1
i | Cc1noc(-c2ccc(N3CCCC(C(=O)NCc4c(C)noc4C)C3)nc2)n1 (centres undefined)
i | COC(=O)C1(Cc2ccc3c(c2)CC(O)C(C)(C)O3)OC(=O)C(OC)=C1c1ccc(O)c(O)c1 (centres undefined)
i | O=C(Cn1cnc2c(-c3ccc(Cl)cc3)csc2c1=O)NCCCc1ccccc1
i | COc1ccc(-c2csc3c(=O)n(CC(=O)Nc4cc(C)ccc4OC)cnc23)cc1
i | CC(Cc1ccco1)NC(=O)CSc1ccc(F)cc1 (centres undefined)

# (further entries)
SMILES | GIRK2 activ
Cc1ccc(NC(=O)Nc2cccc(-c3ccc(N4CCN(C)CC4)nn3)c2)cc1C | i
Cc1cc(=O)[nH]c(-n2ncc(C(=O)Nc3nc(C)cs3)c2C)n1 | i
CCN1CCN(c2nc3c(c(=O)[nH]c(=O)n3C)n2CC(O)COc2ccc(C)c(C)c2)CC1 (centres undefined) | i
O=C(Nc1ccccc1)N1CCN(Cc2nc3ccccc3[nH]2)CC1 | i
CC(Oc1ccc2c(c1)O/C(=C\c1ccccc1F)C2=O)C(=O)O (centres undefined) | i
COc1ccc2ncn(-c3cc(O[C@H](C)c4ccccc4Cl)c(C(N)=O)s3)c2c1 | i
O=c1[nH]nc(SCc2nc(-c3cccs3)no2)n2nc(-c3cccs3)cc12 | i
O=C(Nc1ccc(F)cc1)N1CCCC(c2nnc(-c3ccc4c(c3)OCO4)o2)C1 (centres undefined) | i
CC(=O)N1CCc2ccc(NS(=O)(=O)c3cc(Cl)ccc3C)cc21 | i
CCc1cc2c(N3CCC(C(=O)O)CC3)nc(C)nc2s1 | i
CN(Cc1c(F)cccc1Cl)C(=O)CSc1nnc(Cn2ccc(=O)[nH]c2=O)o1 | i
COc1ccc(-n2c(-c3ccc(Cl)cc3)cn3c4c(=O)[nH]c(=O)n(C)c4nc23)cc1 | i
N#Cc1ccc(-n2cnc(C(=O)Nc3cccc(C(F)(F)F)c3)c2)cc1 | i
Cc1noc(-c2csc(C(=O)NCc3ccc(F)cc3F)n2)n1 | i
O=C(c1cn(-c2cc(N3CCSCC3)ncn2)cn1)N1CCC2(CC1)OCCO2 | i
CCOC(=O)N1CCC(NC(=O)c2cc(=O)c(OCc3ccc(F)cc3)co2)CC1 | i
COc1ccc(CNC(=O)Nc2nc3ccc4sc(C)nc4c3s2)cc1 | i
Cc1cc(O)c2c(c1O)C(=O)c1cc(O)cc(O)c1C2=O | i
COc1ccccc1-c1coc2cc(OC(=O)c3ccc4c(c3)OCO4)ccc2c1=O | i
O=C(c1nc2ccccc2s1)N1CCOCC1CO (centres undefined) | i
O=C(NCCN1CCCCC1)C1CCN(c2ncccc2-c2nc(-c3cccc(F)c3)no2)CC1 | i
Cn1c(SCC(=O)NCc2ccccc2Cl)nc2cc(-c3ccccc3)sc2c1=O | i
COc1ccc(CCNc2nccn(-c3cc(C)c(Cl)cc3OC)c2=O)cc1OC | i
O=C(CSc1ncccc1-c1nc2ccccc2[nH]1)N1CCOCC1 | i
Cc1ccc(C(=O)Nc2c3c(nn2CC(=O)NCCc2ccccc2)CSC3)cc1C | i

SMILES | GIRK2 activ
COc1ccc(C(=O)Nc2nnc(-c3ccc(C)cc3C)o2)cc1 | i
COCCc1nnc(NC(=O)C2c3ccccc3Oc3ccccc32)o1 | i
CCOc1ccccc1N/C=C(\C#N)c1nc2ccccc2n1C | i
COc1ccc(Cc2nnc(Nc3cc(OC)ccc3OC)[nH]c2=O)cc1 | i
O=C(c1ccc2c(c1)OCO2)N1CCN(CC(O)C2CC2)CC1 (centres undefined) | i
CCCc1cc(=O)[nH]c(SCc2nc(-c3cccc(OCC)c3)no2)n1 | i
CCc1ccc(-c2csc(/C(C#N)=C/Nc3ccc(OC)c(OC)c3)n2)cc1 | i
Cc1ccccc1-c1noc(-c2cc(-c3cccs3)[nH]n2)n1 | i
CCCCOc1ccc(C(=O)Nc2cc(C3CC3)nn2-c2nc(C)cc(=O)[nH]2)cc1 | i
Cc1ccc(N2CCN(CC(=O)NCCCn3ccnc3)C2=O)cc1 | i
Cc1ccc(NC(=O)/C=C/c2ccco2)cc1N1CCCCC1=O | i
COc1cccc(NC(=O)NCc2sc(-c3cccs3)nc2C)c1OC | i
COc1ccc(CC(=O)N2CCN(C(=O)C3CC3c3cccs3)CC2)cc1 (centres undefined) | i
COc1ccccc1-n1ncc2c(C(C)C)nnc(SCC(=O)Nc3ccc4c(c3)OCO4)c21 | i
O=C(NCc1ccccc1)C(=O)NCC1(O)CCOc2ccccc21 (centres undefined) | i
COc1ccc(F)cc1S(=O)(=O)Nc1ccc(-n2nnn(C)c2=O)cc1 | i
CC1CCN(C(=O)c2cn(-c3cc(N4CCOCC4)ncn3)cn2)CC1 | i
Cc1cc(C)n(CCNC(=O)COc2ccccc2F)n1 | i
O=C(Nc1nnc(-c2ccsc2)o1)c1ccc2nsnc2c1 | i
O=C(Nc1cccnc1)c1csc(Nc2ncccn2)n1 | i
COc1ccc(-n2c(-c3ccccc3)cn3c4c(=O)n(CC(C)=O)c(=O)n(C)c4nc23)cc1 | i
COc1ccc(-c2cc3c(=O)n(CC(=O)NCc4ccc5c(c4)OCO5)ccn3n2)cc1 | i
O=C(CSc1ccc(F)cc1)N1CCC(CSC2=NCCS2)CC1 | i
O=C(c1cc(-n2cccn2)ccn1)N1CCC(O)CC1 | i
CSCCn1c(=NC(=O)c2cc(C)no2)sc2cc3c(cc21)OCO3 | i

SMILES | GIRK2 activ
O=C(Nc1ccc(Cl)c2ncsc12)c1cc([N+](=O)[O-])cc([N+](=O)[O-])c1 | i
O=C(Nc1ccc(Oc2ccccn2)cc1)c1c2c(nn1C1CCS(=O)(=O)C1)CCC2 (centres undefined) | i
Cn1cc(-c2ccco2)nc1CCNC(=O)CCS(=O)(=O)c1ccccc1 | i
COc1ccc(N2CCCn3c2nc2c3c(=O)n(CC(=O)O)c(=O)n2C)c(OC)c1 | i
CCN(CC)C(=O)Oc1ccc2c(=O)c(-c3ccc(Br)cc3)coc2c1 | i
CCCn1c(SCC(=O)Nc2cccc(Cl)c2)nc2nc(N3CCCCC3)sc2c1=O | i
Cc1cc(C)n(-c2ncc(NC(=O)c3ccc4c(c3)OCO4)cn2)n1 | i
COc1ccccc1/C=C/C(=O)Nc1ccc(OC(C)C)cc1 | i
COc1ccc(C(=O)COc2ccc3c(=O)c(-c4ccccc4)coc3c2)cc1 | i
COc1cc(C)c(Br)cc1S(=O)(=O)NCCC1=CCCCC1 | i
O=C(CN1CCN(c2cccc(Cl)c2)C1=O)N1CCN(c2ncccn2)CC1 | i
O=C(CSc1ccc(F)cc1)N(Cc1ccncc1)c1nc2c(C(F)(F)F)cccc2s1 | i
C=CCOC(=O)C1=C(C)NC(=O)NC1c1ccccc1 (centres undefined) | i
C=CCCC(=O)N1CC2(COC(C)(C)OC2)C1 | i
CCc1c(C)nc2n(c1=O)CC(C(=O)Nc1cc(C(C)(C)C)no1)CS2 (centres undefined) | i
COc1cc(NC(=O)CN2CCC(c3nc(-c4ccc(C)cc4)no3)CC2)cc(OC)c1 | i
CCOC(=O)N1CCC(Oc2ccc(C#N)cn2)CC1 | i
O=C(Nc1ccc(F)cc1)OC1CCCC(NC(=O)C2CC=CCC2)C1 (centres undefined) | i
O=C(NCC1CCN(C(=O)c2ccoc2)CC1)Nc1ccc(Cl)c(Cl)c1 | i
COc1ccc(S(=O)(=O)N2CCC(Oc3ncccc3Cl)CC2)cc1C | i
O=C(c1ccco1)N1CCN(c2ccc3nnc(-c4ccco4)n3n2)CC1 | i
COc1cccc(Sc2ccc(N3CCC(C(=O)N4CCN(c5ccccc5)CC4)CC3)nn2)c1 | i
CC(O)(CNS(=O)(=O)CCc1ccccc1)c1ccco1 (centres undefined) | i
O=C(NC(c1ccccc1)c1ccccc1)N1CC(c2nc(Cc3cccs3)no2)C1 | i
Cc1cccc(-n2nnc(-c3nn4c(Cc5ccccc5)nnc4s3)c2C)c1 | i

SMILES | GIRK2 activ
COc1ccc(S(=O)(=O)N2CCCOC2CNC(=O)C(=O)NCCCN2CCOCC2)cc1 (centres undefined) | i
Cn1nc(-c2cccs2)cc1C(=O)NCCn1nc(C(F)(F)F)n(C)c1=O | i
CCc1ccc(S(=O)(=O)N(CCOC)Cc2ccsc2)cc1 | i
Cc1nnsc1C(=O)NCC1(O)CCCC1 | i
Cc1nc(-c2nnc(NC(=O)Cn3c(=O)oc4ccccc43)o2)cs1 | i
CC(=O)c1cccc(NC(=O)Cn2nc(-c3cccs3)c3sc(N4CCCC4)nc3c2=O)c1 | i

# Screening data: PubChem BioAssay, Vanderbilt University
